KCNQ2 block = KCNQ2 potassium channel inhibitors, primary screen, cell-based, CHO-K1, FluxOR thallium flux, B-score (AID 2156); 20 min; hits give low values; only compounds with negative scores are shown here; some inactives read as strong as hits; B-score at 10 µM; O88943; actives 1.1% (n = 310,000);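 active means fluorescence ratio B-score at most minus 3 library SDs, with starting brightness B-score within 2 library SDs, cut at about -5.5 in these data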
Target sequence (O88943 whole entry, looked up): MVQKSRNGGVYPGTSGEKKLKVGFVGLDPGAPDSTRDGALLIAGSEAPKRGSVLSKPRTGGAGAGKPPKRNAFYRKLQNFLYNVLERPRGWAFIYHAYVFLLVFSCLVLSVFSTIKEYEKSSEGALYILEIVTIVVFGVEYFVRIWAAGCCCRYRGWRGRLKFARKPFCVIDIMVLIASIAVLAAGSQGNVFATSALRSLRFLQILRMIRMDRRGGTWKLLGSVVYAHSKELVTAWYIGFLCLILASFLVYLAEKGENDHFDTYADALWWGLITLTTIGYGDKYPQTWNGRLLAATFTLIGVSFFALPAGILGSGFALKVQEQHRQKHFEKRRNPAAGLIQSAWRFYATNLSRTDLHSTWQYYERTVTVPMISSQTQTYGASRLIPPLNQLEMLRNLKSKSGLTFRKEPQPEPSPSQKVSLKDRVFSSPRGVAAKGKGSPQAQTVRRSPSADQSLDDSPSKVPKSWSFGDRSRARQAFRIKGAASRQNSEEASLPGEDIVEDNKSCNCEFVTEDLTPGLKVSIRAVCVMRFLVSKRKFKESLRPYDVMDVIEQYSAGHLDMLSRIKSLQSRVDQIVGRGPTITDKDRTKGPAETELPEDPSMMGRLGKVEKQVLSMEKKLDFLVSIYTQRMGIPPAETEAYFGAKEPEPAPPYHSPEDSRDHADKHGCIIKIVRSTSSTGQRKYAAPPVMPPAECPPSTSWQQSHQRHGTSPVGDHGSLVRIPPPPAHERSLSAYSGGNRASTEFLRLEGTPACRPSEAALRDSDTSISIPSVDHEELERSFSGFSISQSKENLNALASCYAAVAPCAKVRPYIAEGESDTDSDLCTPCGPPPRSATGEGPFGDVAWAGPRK
KCNQ2 block baseline = further read-out of KCNQ2 block, marked with its call; B-score; measured here: initial fluorescence intensity artifact check;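 brightness before thallium and not channel activity; 0 = typical well and far values either way flag optical interference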
* hit, by the source's call; i = inactive.

KCNQ2 block,KCNQ2 block baseline,compound
i,2.6,Cn1c(N)c(C(=O)COC(=O)c2ccc(Cl)nc2)c(=O)n(C)c1=O
i,-0.28,O=C(NNC(=O)c1ccccc1-n1cccc1)c1ccc(Cl)c(Cl)c1
i,-0.17,COc1ccc(S(=O)(=O)NC(CC(=O)NCCc2ccc(OC)c(OC)c2)C(C)C)cc1 (configuration not stated)
i,-0.74,COCCNC(=O)C(=O)Nc1ccc2c(c1)N(S(=O)(=O)c1cccs1)CCC2
i,-0.92,Cc1cc(C)n(-c2ccc(C(=O)N3CCC(CO)(Cc4ccccc4)CC3)cc2)n1
i,-0.42,COc1ccc(OCC(=O)N2CCN(c3cccc(C(F)(F)F)c3)CC2)cc1
i,1.3,Cc1ccccc1NC(=O)Cn1nnc(S(=O)(=O)c2ccc(C(C)(C)C)cc2)c1N
i,-0.57,CC(C)(C)c1cc(C(=O)N/N=C/c2ccco2)n[nH]1
i,-0.18,O=C(NC(=S)NCCN1CCOCC1)c1ccc(F)cc1
i,-0.16,CN(C)c1ccc(/C=C2\SC(=O)N(CCc3nnc(N)s3)C2=O)cc1
i,0.63,CC(Sc1ccc2c(c1)OCCO2)C(=O)Nc1ccc(N2CCOCC2)cc1 (configuration not stated)
i,-3.6,NC(=O)CSc1nnc(COc2ccccc2)n1CCc1ccccc1
i,1.1,O=C1c2ccccc2C(=O)N1CC#CCN1CCN(C(c2ccccc2)c2ccccc2)CC1
i,-0.3,Cc1ccc(C)c(CN2CCC(n3nccc3NC(=O)C3CCCC3)CC2)c1
i,-2.7,Cn1cccc1C(=O)NC(=O)COC(=O)c1cc(S(=O)(=O)N2CCCCC2)ccc1Cl
i,-1.5,Cc1ccc(S(=O)(=O)N/N=C/c2cc(Br)c(C)o2)cc1
i,0.67,CN(Cc1ccccc1)C(=O)CN1C(=O)c2ccccc2S1(=O)=O
i,-0.04,N#Cc1ccc(C(c2nnnn2C2CCCC2)N2CCC(Cc3ccccc3)CC2)cc1 (configuration not stated)
i,0.1,COc1cccc(NC(=O)c2ccnc(N3CCC(C(=O)NCc4cc(OC)ccc4OC)CC3)c2)c1
i,1,CC(=O)c1ccc(NC(=O)CN(C)CC(=O)Nc2cccc(F)c2)cc1
i,-2,N#CCCCSc1nnc(CSc2nc3ccccc3s2)n1-c1ccccc1
i,1,CCOC(=O)c1ccc(NC(=O)CSCC(=O)OCC(=O)c2ccccc2)cc1
i,1.7,Cc1ccc(C)c2[nH]c(=O)c(CN(CC3CCCO3)S(=O)(=O)c3ccc4c(c3)OCCO4)cc12 (configuration not stated)
i,0.74,COCCn1c(-c2ccccc2)csc1=Nc1cccnc1
i,1.9,Cn1nnnc1CCOCCc1nnnn1C
i,-0.56,O=C(c1csc2c1CCCC2)N1CCN(c2cccc(C(F)(F)F)c2)CC1
-8.2*,-0.02*,COc1cc(OC)cc(C(=O)NCCCCc2ccccc2)c1
i,-1.3,Oc1ccc(Nc2nc(-c3ccccc3O)nc3ccccc23)cc1
i,-0.05,CC1(C)CC2CC(C)(CN2CC(O)COc2ccccc2)C1 (configuration not stated)
-7.5*,0.7*,COc1cccc(Oc2ccc(C(F)(F)F)cc2NC(=O)C2=COCCO2)c1

Structures from the list above that contain a CF3 group:
KCNQ2 block,KCNQ2 block baseline,compound
i,-0.42,COc1ccc(OCC(=O)N2CCN(c3cccc(C(F)(F)F)c3)CC2)cc1
i,-0.56,O=C(c1csc2c1CCCC2)N1CCN(c2cccc(C(F)(F)F)c2)CC1
-7.5*,0.7*,COc1cccc(Oc2ccc(C(F)(F)F)cc2NC(=O)C2=COCCO2)c1

(list continues)
KCNQ2 block,KCNQ2 block baseline,compound
i,-2.1,Cc1cc(C)cc(OCC(=O)Nc2ccc3c(c2)C(=O)c2ccccc2C3=O)c1
i,-0.31,O=C(Nc1ccc2ccccc2c1)/C(=C/c1cccc(Br)c1)NC(=O)c1ccco1
i,0.86,O=Cc1ccccc1-c1cn(CCCOCc2ccccc2)nn1
i,0.05,CC(C)CNC(=O)c1ccc(Cl)c(N)c1
i,-0.28,N#Cc1ccc(OCC(=O)NCCc2ccccn2)cc1
i,0.49,c1ccc(OCCOCCSc2ncccn2)cc1
i,-0.82,O=C(O)c1cc(-n2[nH]c(=O)c3ccccc3c2=O)ccc1Cl
i,-0.83,Cc1cc(C)c[n+](-c2nc([O-])sc2C=O)c1
-10*,-1.1*,Cc1c(CCOC(=O)CC23CC4CC(CC(C4)C2)C3)sc[n+]1CC(=O)c1ccc(Br)cc1
i,-0.28,Cc1ccc(C(=O)N/N=C/c2cn(Cc3ccccc3)c3ccccc23)cn1
i,-1.6,N=c1sccn1CC(=O)N1CCc2ccccc21
i,-0.34,Fc1ccc(C2CC(c3cccs3)=NN2C(=S)Nc2ccccc2)cc1 (configuration not stated)
i,0.29,COc1cc(C(=S)N2CCOCC2)cc(Br)c1OS(=O)(=O)c1ccccc1
i,-0.05,CCOC(=O)CSCC(=O)N1N=C(c2cccs2)CC1c1ccc(F)cc1 (configuration not stated)
i,0.31,Fc1ccc(N2CCN(C(c3cccs3)c3nnnn3CCc3ccccc3)CC2)cc1 (configuration not stated)
i,0.05,Clc1ccc(OCc2nn3c(C4CCCCC4)nnc3s2)c(Cl)c1
i,-1.4,COc1ccc(CN(C(=O)c2snc(C(N)=O)c2N)C(CC(C)C)C(=O)NC2CCCCC2)cc1 (configuration not stated)
i,1.6,COc1ccc(C(=O)Nc2ccc3oc(-c4cccc(Cl)c4)cc(=O)c3c2O)cc1
i,0.69,CC(C)(C)c1nn2cnnc2n(/N=C/c2cccc3ccccc23)c1=O
i,-0.07,Cc1cccc(C(=O)N[C@H](C(=O)Nc2cccc(S(=O)(=O)N3CCCC3)c2)C(C)C)c1
i,-0.22,Cc1ccc(Cl)cc1NC(=O)c1ccc(CSc2nnnn2C)cc1
i,1.5,COc1cc(-c2nnc(Cn3cc(C(F)(F)F)ccc3=O)o2)cc(OC)c1OC
i,1.6,Cc1ccsc1-c1nc(CN(C)C(C2CC2)C2CC2)c(C)o1
i,0.05,COc1ccc(CN2C(=O)c3ccccc3C2C(=O)NC2CCC(C)CC2)c(OC)c1 (configuration not stated)
i,1.5,O=C(Nc1ccc2c(c1)CCC2)c1cc(S(=O)(=O)Nc2ccc(F)cc2)c(Cl)cc1Cl
i,-0.79,O=C(Cc1ccc(-n2c(=O)[nH]c3ccccc3c2=O)cc1)N1CCN(c2ccccc2)CC1
i,-0.06,O=C(Nc1ccc(N2CCOCC2)cc1)NC1CCCCC1
i,-2.1,Cc1occc1C(=O)N/N=C/c1ccc(-c2ccccc2)cc1
i,1.7,CCCc1cc(C(=O)OC)c2ccccc2n1
i,0.01,O=C(O)CCNC(=O)c1ccc(NC(=O)Cc2ccc(Cl)cc2)cc1

(further entries)
KCNQ2 block,KCNQ2 block baseline,compound
i,-0.16,Cc1ccc(-c2cc(NC(=O)c3ccccc3[N+](=O)[O-])n[nH]2)cc1
i,-0.29,COc1ccc(NC(=O)c2ccc(NCCN3C(=O)CCC3=O)c([N+](=O)[O-])c2)cc1
i,2.8,O=C(NCCN1CCOCC1)c1ccc(Cl)c(S(=O)(=O)N2CCCCC2)c1
i,-0.91,CCOc1ccc(OCC(=O)OCC(=O)NNC(=O)c2ccc([N+](=O)[O-])cc2)cc1
-6.3*,-0.15*,O=C(Nc1ccccc1-c1ccccc1)c1ccccc1Br
i,0.04,CCN(CCCNC(=O)c1nn(C)c2c1CS(=O)(=O)c1ccccc1-2)Cc1ccccc1
i,0.02,CCc1cccc(CC)c1NC(=S)/C(=C(\[O-])c1ccc(Cl)s1)[n+]1ccccc1
i,1.9,COc1ccc(S(N)(=O)=O)cc1C(=O)N(C)CC(=O)Nc1ccc(N2CCOCC2)cc1
i,-0.69,CCOC(=O)c1ccc(-n2c(C)ccc2C)cc1
i,0.1,CCOc1cc(/C=C2\N=C(C)OC2=O)cc(Br)c1OCC(=O)OC
i,1,CC(C)[C@H](NC(=O)OCc1ccccc1)C(=O)OCc1cc(=O)oc2cc(O)ccc12
i,-0.97,O=C(Nc1ccc(N2CCN(C(=O)c3ccco3)CC2)cc1)c1ccc2c(c1)OCO2
i,0.69,Cc1cccc(NC(=O)C2CCCN2S(=O)(=O)c2ccc(F)cc2)c1C (configuration not stated)
i,0.82,COc1ccc(C(=O)NC(=S)NNC(=O)c2c(-c3ccccc3)noc2C)cc1
i,0.25,Clc1ccc2[nH]c3c(c2c1)CNCC3
i,-0.72,Cc1cccc(CN2CCN(C(=O)c3cccc4ccccc34)CC2)c1
i,-0.1,O=S(=O)(Nn1cnnc1)c1ccccc1Cl
i,1.3,O=c1[nH]c(O)c(C=Nc2ccc(Cl)cc2Cl)c(=O)[nH]1
i,3.3,Cc1oc2ccc(O)cc2c1C(=O)c1ccc(Cl)cc1
i,-0.12,O=C(NCCCN1CCN(c2cccc(Cl)c2)CC1)C1(S(=O)(=O)c2ccc(Cl)cc2)CC1
i,-0.16,CCC(C)C1Nc2ccc(C(=O)NCc3ccc4c(c3)OCO4)cc2NC1=O (configuration not stated)
i,-0.59,O=C(CCc1ccccn1)N1CCCC(Nc2cccc(F)c2)C1 (configuration not stated)
i,-0.59,COc1cccc(CCNC(=O)c2cc(COc3c(F)cccc3F)on2)c1
i,-0.43,O=C(N/N=C\c1ccc(F)cc1)c1ccc(F)cc1
i,0.3,NS(=O)(=O)c1ccc(CCNC(=O)C2CCCCC2)cc1
i,-0.86,OC(COc1cc(Cl)c(Cl)cc1Cl)CN1CCN(c2ncccn2)CC1 (configuration not stated)
i,0.53,Cc1cc(C)cc(N(C(=O)Cn2nnc3ccccc32)C(C(=O)NCc2ccco2)c2ccncc2)c1 (configuration not stated)
i,0.46,COc1ccccc1C(=O)NCCc1nc2ccccc2n1C
i,0.03,Cc1ccc(N2C(=O)c3ccccc3C2C(=O)c2ccc(O)cc2O)cc1 (configuration not stated)
i,0.95,O=C(Nc1ccccc1C(=O)O)c1cc(S(=O)(=O)Nc2ccccc2)ccc1Cl

Overlap with the part before: seven entries; new compounds follow.
KCNQ2 block,KCNQ2 block baseline,compound
i,-0.43,O=C(N/N=C\c1ccc(F)cc1)c1ccc(F)cc1
i,0.3,NS(=O)(=O)c1ccc(CCNC(=O)C2CCCCC2)cc1
i,-0.86,OC(COc1cc(Cl)c(Cl)cc1Cl)CN1CCN(c2ncccn2)CC1 (configuration not stated)
i,0.53,Cc1cc(C)cc(N(C(=O)Cn2nnc3ccccc32)C(C(=O)NCc2ccco2)c2ccncc2)c1 (configuration not stated)
i,0.46,COc1ccccc1C(=O)NCCc1nc2ccccc2n1C
i,0.03,Cc1ccc(N2C(=O)c3ccccc3C2C(=O)c2ccc(O)cc2O)cc1 (configuration not stated)
i,0.95,O=C(Nc1ccccc1C(=O)O)c1cc(S(=O)(=O)Nc2ccccc2)ccc1Cl
i,0.43,COc1ccccc1CNC(=O)[C@H](C)NC(=O)C1CCN(C(=O)[C@@H](N)Cc2ccccc2)CC1
i,1.9,Cc1cc(C(F)(F)F)nn1Cc1n[nH]c(=S)n1Cc1ccccc1
i,0.16,N/C(COc1ccccc1)=N\NC(=O)c1cccnc1Oc1ccccc1
i,0.3,NS(=O)(=O)c1ccc(CCNCc2cc(Br)ccc2OCc2ccccc2)cc1
i,-0.44,CCc1cc2c(-c3ccccc3)cc(=O)oc2c(CN2CCOCC2)c1O
i,-0.55,Cc1ccc(-n2c(SCC(=O)N/N=C/c3ccccc3OCC(=O)O)nc3ccccc3c2=O)cc1
i,-1,Clc1ccc(CCNc2nc3ccccc3n3nnnc23)cc1
i,-0.95,COc1ccc(OC)c(N(CC(=O)NCC2CCCO2)S(=O)(=O)c2ccccc2)c1 (configuration not stated)
i,0.93,Oc1ccccc1Cc1c(O)ccc2ccccc12
i,1.8,Cc1c(Cl)cnc(NC(=O)COC(=O)CCc2nc3ccccc3s2)c1Cl
i,1.1,CCOc1cc(C(=O)Nc2ccc([N+](=O)[O-])cn2)cc(OCC)c1OCC
i,-1.8,CCCNC(=O)C(Cc1ccccc1)NS(=O)(=O)c1ccc2c(c1)CCC(=O)N2 (configuration not stated)
i,0.61,CC1(C)CC(=O)c2cn3nc(C(F)(F)F)nc3nc2C1
i,-0.09,CCCCCC(=O)Nc1ncc2c(n1)CC(c1cccs1)CC2=O (configuration not stated)
i,-0.26,COc1ccc(OCC(=O)N/N=C(\C)CC(=O)Nc2ccc(OC)cc2[N+](=O)[O-])cc1
i,1.3,COc1ccc(S(N)(=O)=O)cc1C(=O)NC1CCCc2ccccc21 (configuration not stated)
i,1.4,CCOc1ccc(N2C(=O)CC(N3CCOCC3)C2=O)cc1 (configuration not stated)
i,0.15,COc1ccc(NC(=O)c2ccc(C#N)cc2)cc1NS(=O)(=O)c1ccc(F)cc1
i,0.03,O=C(O)/C=C\C(=O)NCc1cccnc1
i,-0.28,CC(NS(=O)(=O)c1ccc(OCC(=O)NCc2ccncc2)cc1)c1ccccc1 (configuration not stated)
i,0.4,Cc1c2cnn(CC(=O)Nc3cccc(C(F)(F)F)c3)c(=O)c2c(C)n1Cc1ccccc1F
i,1.1,Cn1c(=O)n(C)c2cc([N+](=O)[O-])c(N3CCN(S(=O)(=O)c4ccccc4)CC3)cc21
i,0.74,COc1ccc(-c2cc(C(=O)NNC3=NCCC3)c3c(C)nn(-c4ccccc4)c3n2)cc1
i,0.32,CC(Cc1ccccc1)C(=O)NCc1ccncc1 (configuration not stated)
i,3,COc1cccc(-c2ccc3nnc(SCC(=O)Nc4ccc(NC(C)=O)cc4)n3n2)c1

Source: PubChem BioAssay

Some of the compounds tested, so the mix of outcomes need not match the whole.
